VDR inhibitor: Inhibitors of the vitamin D receptor (VDR): qHTS; Vitamin D3 receptor (Homo sapiens), P11473; VDR-SRC2-3 peptide fluorescence polarization, 2 h; Potency, µM, inactives show max response, negative = inhibition, usual class: inhibitors; 0.93% of 400,000 active; active = well fitted inhibition curve with a large enough effect; inconclusive = small, poorly fitted or top-dose-only effect, or another doubt; inactive = no such curve, though single readings can be large or run the other way; note: series mostly up to about 120 µM
Target sequence (P11473 whole entry, looked up): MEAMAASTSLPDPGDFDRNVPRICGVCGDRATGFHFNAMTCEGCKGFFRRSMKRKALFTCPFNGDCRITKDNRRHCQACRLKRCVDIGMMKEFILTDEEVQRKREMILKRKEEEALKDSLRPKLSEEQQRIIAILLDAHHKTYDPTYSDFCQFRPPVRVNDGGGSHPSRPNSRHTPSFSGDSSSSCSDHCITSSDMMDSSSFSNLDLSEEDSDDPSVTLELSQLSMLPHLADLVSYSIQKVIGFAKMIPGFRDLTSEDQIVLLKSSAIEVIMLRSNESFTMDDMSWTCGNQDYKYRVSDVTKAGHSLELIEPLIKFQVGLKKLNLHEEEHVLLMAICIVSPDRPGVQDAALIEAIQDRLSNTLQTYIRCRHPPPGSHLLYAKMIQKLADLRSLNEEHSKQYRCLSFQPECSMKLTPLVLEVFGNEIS
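Inhibition of the VDR/SRC2-3 peptide interaction is quantified by fluorescence polarization. Compounds (23 nl, pintool) incubate with the reagents for 2 hours at ambient room temperature.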
* marks the source's active call; other numbers are inactive results; u = inconclusive; & = joins results of further samples; [ ] = remark or other dose. % is set by controls: 0 for no effect and ±100 for the full control effect; potency is the fitted concentration of half-maximal effect.

molecule	VDR inhibitor
CN(NC(=O)CN1C(=O)c2ccccc2C1=O)C1=NS(=O)(=O)c2ccccc21	-14%
COc1ccccc1-c1nc(NCc2ccccc2)c2ccccc2n1	6%
COC(=O)CCC(=O)Nc1ccc(NC(C)=O)cc1	-6%
CCOc1ccc(-c2cc3nc(C4CCN(C(=O)OC(C)(C)C)CC4)c(C(=O)Nc4cc(OC)ccc4OC)cn3n2)cc1	-24%
O=C(NCc1ccco1)C1CCC(CNS(=O)(=O)c2cccc3cccnc23)CC1 (stereo not given)	-15%
CC1(C)CC(=O)C(C(c2cccc([N+](=O)[O-])c2)C2C(=O)CC(C)(C)CC2=O)C(=O)C1	u
COc1ccc(NC(=O)CSCC(=O)Nc2nnc(CC(C)C)s2)cc1	u
N#Cc1ccc(S(=O)(=O)NC2CC2)cc1	-26%
CC(NC(=O)Cn1cccc1)c1ccccc1 (stereo not given)	3%
CC(C)NC(=O)N(C)C[C@@H]1Oc2c(NC(=O)C3CCOCC3)cccc2C(=O)N([C@@H](C)CO)C[C@H]1C	-7%
COc1c2c(cc3occ(-c4ccc5c(c4)OCO5)c(=O)c13)OC(C)(C)C=C2	2%
O=S(=O)(Nc1ccc(O)c2ccccc12)c1ccc(F)cc1	u
O=C(CCCOc1ccc(Br)cc1)NCCc1ccc(OC(F)F)cc1	4%
CC1(C)CC(=O)c2sc(NS(C)(=O)=O)nc2C1	-8%
O=C(CCSc1ccccc1)N1CCN(c2ccccc2F)CC1	13%

3 entries already listed, arranged by length of the SMILES, rising.
molecule	VDR inhibitor
CC(NC(=O)Cn1cccc1)c1ccccc1 (stereo not given)	3%
COC(=O)CCC(=O)Nc1ccc(NC(C)=O)cc1	-6%
CCOc1ccc(-c2cc3nc(C4CCN(C(=O)OC(C)(C)C)CC4)c(C(=O)Nc4cc(OC)ccc4OC)cn3n2)cc1	-24%

Remaining list, next part
molecule	VDR inhibitor
CC1CN(C(=O)C(C)N2CCN(c3ccccc3Cl)CC2)CC(C)O1 (stereo not given)	-2%
CN(CC(=O)Nc1ccc2c(c1)OCO2)S(=O)(=O)c1ccc2c(c1)CCC(=O)N2	1%
CCOC(=O)NC(CC(=O)O)c1ccc(OCC)cc1 (stereo not given)	-6%
CC1C2(C)OC(=N)C(C#N)(C(C)O2)C1(C#N)C#N (stereo not given)	5%
COc1ccc(S(=O)(=O)c2c(O)c(C)cc(NC(=O)c3ccccc3)c2C(C)C)cc1	-26%
COc1ccc(-c2oc3ccc(-c4cc(OC)c(OC)c(OC)c4)cc3c2-c2ccc(OC)cc2)cc1	4%
Cc1ccc(CNC(=O)COC(=O)CCCOc2ccc(Cl)cc2Cl)cc1	0%
O=C(Nc1ccccc1C(=O)Nc1nnc(C(F)(F)F)s1)c1ccccc1Cl	-21%
COCCNC(=S)NCCc1ccc(Cl)cc1Cl	-22%
CCOC(=O)C1CCCN(C(=O)c2sc3nc(-c4ccccc4)cn3c2C)C1 (stereo not given)	-6%
O=C1CC(c2nnc(Cc3ccc(F)cc3Cl)o2)CN1c1ccccc1 (stereo not given)	4%
O=C(NC(=S)Nc1ccccc1N1CCCCC1)c1ccccc1	-3%
Cc1c([N+](=O)[O-])cc(S(=O)(=O)Nc2ccncc2)cc1[N+](=O)[O-]	-16%
CCN(CC)C(=O)c1nn(Cc2ccccc2)c(=O)c2ccccc12	8%
O=C(O)c1nn(-c2ccccc2)nc1-c1nn(-c2ccccc2)nc1C(=O)O	8%
COc1ccc(/C=N/n2c(N)c(S(=O)(=O)c3cccs3)c3nc4ccccc4nc32)cc1OC	9%
Cc1ccn2c(c1)nc(=O)c1cc(S(=O)(=O)N3CCC(C)CC3)c(Cl)cc12	8%
CSc1ccccc1NC(=O)CN(Cc1ccccc1)S(C)(=O)=O	-1%
COc1ccc(CNC(=O)c2c(Nc3ccc(OC)cc3OC)sc(C(=O)c3ccc(Cl)cc3)c2N)cc1	-5%
O=C(OCc1ccc(Br)cc1)c1cccnc1	-10%
COc1cc(CCCN2C(=O)C(=O)NC[C@@H]2Cc2ccc(O)cc2)cc(OC)c1OC	5%
O=C(COc1ccc2c(c1)CCC2)NCc1ccccc1	-3%
CCCc1cc(=O)n2[nH]c(-c3ccccc3)cc2n1	-14%
CC(=O)Nc1cc(OC(=O)c2ccco2)cc(OC(=O)c2ccco2)c1	-6%
Cc1nonc1C1CCCN1C(=O)c1cc(COc2ccc(F)cc2Cl)on1 (stereo not given)	10%
Cc1ccccc1C(=O)N1CCC(C(=O)N2CCN(Cc3ccc4c(c3)OCO4)CC2)CC1	5%
CCOc1ccc(OCCNC2CCCC2)cc1	-8%
Cc1cn(C)c(CC(=O)NCc2cccc(Cl)c2)c1C(=O)O	6%
CC(C)C(NC(=O)c1c(F)cccc1F)C(=O)NNC(=O)c1ccccc1 (stereo not given)	-5%
COC(=O)c1cnn(-c2ccccc2)c1-n1cccc1C=O	-8%
CC(=O)c1cccc(NC(=O)N2CCN(S(C)(=O)=O)CC2)c1	-3%
C/C(=N\NC(=O)c1cc(-c2cccnc2)nc2ccccc12)c1ccc(O)cc1O	-16%
COc1ccccc1C(=O)C1CCCN(Cc2cccc3nccnc23)C1 (stereo not given)	6%
CCOc1cc2[nH]c(=O)n(CCCCCC(=O)NCc3ccco3)c(=O)c2cc1OCC	-5%
O=C(CSc1cccc(C(F)(F)F)c1)NC(=O)c1ccccc1	0%
COc1ccc(C2Sc3ccccc3NC3=C2C(=O)c2ccccc23)c(OC)c1OC (stereo not given)	-14%
CCOc1ccccc1CNC(=O)c1oc2ccc3c(c2c1C)C(=O)CC(C)(C)O3	-14%
CC1CCCN(c2c([N+](=O)[O-])cc(C(=O)O)cc2[N+](=O)[O-])C1 (stereo not given)	-14%
CSc1ccc(CNCC2CCCO2)cc1 (stereo not given)	-13%
C=C(C)c1cccc(C(C)(C)NC(=O)NCCCn2ccnc2)c1	-8%
O=C(CSc1nnc(-c2cccc(Br)c2)o1)N1CCOCC1	10%
COCCN1C(=O)N[C@@H](CCc2ccccc2)[C@@H](C(=O)OC)[C@H]1C	-2%
O=C(Nc1ccc(C(=O)NC2CCCCC2)cc1)c1cncc(Br)c1	4%
CC(C)Oc1ccc(C(=O)OCC(=O)N2CCCc3ccccc32)cc1	2%
c1ccc(-c2cc3ccccc3nc2N2CCCC2)cc1	5%
C#CCOCCOCCOCCNc1nc(N2CCN(C(=O)CCCCCCCCCCNC(=O)Cn3cc(C[C@@H](C)O)nn3)CC2)nc(N2CCN(C(=O)CCCCCCCCCCNC(=O)[C@H](CCCCN)n3cc(C[C@@H](C)CC)nn3)CC2)n1	32%[activator]
COc1ccc(/C=N/NC(=O)c2sc(C)nc2C)cc1	-18%
CCCCCc1c(O)nc(SCCN2CCOCC2)[nH]c1=O	-12%
Cc1cc(C(=O)O)ccc1N/C=C1\CCCC(C)C1=O (stereo not given)	3%
O=C(C1CCCN(S(=O)(=O)c2cccs2)C1)N1CCN(C2CCCCC2)CC1 (stereo not given)	2%
COc1cccc(CN(C)C(=O)CN2C(=O)NC3(CCCc4ccccc43)C2=O)c1 (stereo not given)	-7%
COC(=O)[C@]1(C)CCC[C@@]2(C)C3CC[C@@]4(C)C[C@]3(CCC21)CC(=O)N4 (stereo not given in full)	-18%
O=C(Nc1c(C(=O)N2CCCCC2)cnn1-c1ccccc1)c1ccccc1F	-6%
COc1cc(-c2nnc(Sc3ccc(C(F)(F)F)cc3[N+](=O)[O-])o2)cc(OC)c1OC	12%
O=C(NCC(=O)N(c1cccnc1)C(C(=O)NC1CCCC1)c1ccco1)c1cccs1 (stereo not given)	-3%
CCc1ccc(NC(=O)C2CCN(S(C)(=O)=O)CC2)cc1	3%
CC(C)NC(=O)CSc1nccc(-c2cccs2)n1	7%
CN(C)S(=O)(=O)Oc1ccsc1C(=O)Nc1ccc(Br)cc1	-6%
O=C(O)CCc1ccc(-c2cccs2)n1CC(=O)Nc1ccccc1C(F)(F)F	-5%&9%
CC(NC(=O)C(=O)N1CCCCC1)C(c1cccs1)N1CCN(Cc2ccccc2)CC1 (stereo not given)	0%

An excerpt of these results, field by field.
CC(C)NC(=O)CSc1nccc(-c2cccs2)n1
  VDR inhibitor = 7%
CN(C)S(=O)(=O)Oc1ccsc1C(=O)Nc1ccc(Br)cc1
  VDR inhibitor = -6%
O=C(O)CCc1ccc(-c2cccs2)n1CC(=O)Nc1ccccc1C(F)(F)F
  VDR inhibitor = -5%&9%
CC(NC(=O)C(=O)N1CCCCC1)C(c1cccs1)N1CCN(Cc2ccccc2)CC1 (stereo not given)
  VDR inhibitor = 0%

(next part)
molecule	VDR inhibitor
O=[N+]([O-])c1ccc(N2CCN(S(=O)(=O)c3ccc(Cl)cc3)CC2)cc1NCC1CCCO1 (stereo not given)	-1%
Cc1ccc(/C=N/NC(=O)c2ccc3ccccc3c2)s1	-8%
O=C(COc1ccccc1)Nc1c(Cl)ccc2nsnc12	4%&-4%
Cc1ccccc1-c1nc2cc(NC(=O)C3CC3)ccc2o1	-4%
Clc1ccc(C2=Nc3cc(Cl)ccc3OC2)cc1	u
Cc1ccc(S(=O)(=O)NCCSc2nncn2C)cc1	37%[activator]
COc1ccc(OC)c(Nc2nc(N)c([N+](=O)[O-])c(NCc3ccccc3)n2)c1	-8%
Cc1cc(N2CCN(c3ccccc3)CC2)n2nnnc2n1	-7%
NC(=S)N/N=C1\CC(n2nnnc2-c2ccccc2Cl)C2COC1O2 (stereo not given)	6%
CCOC(=O)CN1NC2(CCCCCCC2)NC1=S	-8%
CCN1C(=O)N(C)C(N(O)C(=O)NC)C1(C)C (stereo not given)	11%
CC(=O)c1c(C)n(-c2ccccc2Br)c2ccc(O)cc12	-8%
NC(N)=NCCCCN=C(N)N	7%&-3%&-6%
O=C1C=C(O)CC(c2cccs2)C1 (stereo not given)	1%
CCc1n[nH]c2c1C(=O)CC(C)(C)C2	3%
Cc1ccc(S(=O)(=O)N2CCN(C(=O)CCCOc3cccc(C)c3)CC2)cc1	-4%
CCn1cc(S(=O)(=O)NC2CCCCC2)cn1	-9%
COc1ccc2c(c1)c1nc3ccccc3nc1n2CCCN1C(=O)c2ccccc2C1=O	-1%
Cc1ccc(C(=O)NCC(=O)N2CCCC(C(F)(F)F)C2)s1 (stereo not given)	-19%
CCOC(=O)C1(Cc2ccccc2)CCN(Cc2nccn2CC)CC1	8%
COc1cc(C)cc2c1OC(c1ccccc1)CC2=O (stereo not given)	-2%
Cc1ccc(S(=O)(=O)CC(=O)Nc2nnc(C(C)C)s2)cc1	-2%
Cc1ccc(S(=O)(=O)N(CC(=O)NN=C2CCN(C)CC2)c2ccc(F)cc2)cc1	10%
CCc1ccc(/C=C2\SC(N3CCOCC3)=NC2=O)cc1	-19%
Cc1nc2ccccc2n1CC(=O)NC1CCCC1	8%
COc1cccc(Oc2nc3c(c(=O)n(Cc4ccccc4F)c(=O)n3C)n2C)c1	-6%
COc1ccc(C2NN=C(c3ccc(C)cc3)S2)cc1OC (stereo not given)	-8%
COC(=O)c1c(NC(=O)C(=O)NCCCN2CCOCC2)sc2c1CCCC2	-6%
CN(C)c1ccc(NC(=O)CSC2=Nc3ccccc3C3=NC(CC(=O)NCc4ccc5c(c4)OCO5)C(=O)N23)cc1 (stereo not given)	-1%
CC(C)Oc1ccc(CCC(=O)N/N=C/c2ccncc2)cc1	19%
CC(C)C(=O)N(c1ccc2oc(=O)sc2c1)S(=O)(=O)c1ccccc1	79µM*
N#C/C(=C1/CCCN1)c1ccccn1	1%
CSCCC(NS(=O)(=O)c1ccc(C)cc1)C(=O)N(C)CC(=O)Nc1ccccc1Br (stereo not given)	-3%
CCC(CC)C(=O)Nc1ccccc1C(=O)OCc1cc(=O)n2nc(C3CCCCC3)sc2n1	-5%
COC(=O)c1ccc(OC(=O)CS(=O)c2ccccc2[N+](=O)[O-])cc1 (stereo not given)	-4%
COc1cc([N+](=O)[O-])ccc1NC(=O)CN1CCN(C(=O)c2ccco2)CC1	3%
CCC(C)c1ccc(NC(=O)NCCN2CCCCC2)cc1 (stereo not given)	-4%
Cc1cc(C)cc(C(=O)NCCC(=O)NCc2cc(=O)n(C)c(=O)n2C)c1	23%
C=CC[C@H](CC(=O)NCCO)C(=O)N[C@@H](COC(=O)[C@H](CC=C)CC(=O)OC(C)(C)C)Cc1ccccc1	-21%
O=C(NCCc1c[nH]c2ccccc12)/C(=C/c1ccco1)NC(=O)c1ccco1	-10%
COCCNC(=O)CCn1c(=O)c2cc(OC)c(OC)cc2n(CC(=O)Nc2ccccc2C)c1=O	7%
CC1CCN(C(=O)c2cc3nc(C4CC4)cc(C(F)(F)F)n3n2)CC1	-2%
CC(=O)c1cc(-c2ccccc2)n(CC(=O)NCc2ccccc2C)c1C	1%
O=C(Nc1ccc2nc(-c3cccnc3)[nH]c2c1)C1CCCCC1	-5%
CC1=CCC(C(=O)O)C(C(=O)Nc2ccc(-c3nc4ccc(C)cc4s3)cc2)C1 (stereo not given)	-5%
NS(=O)(=O)c1ccc(NC(=O)CN2CCN(Cc3ccccc3)CC2)cc1	11%
COC(=O)c1ccc(NC(=O)COc2ccc(S(=O)(=O)NC(C)C)cc2)cc1	0%

Only part of the results is shown (hit frequency here may not be typical).
